Source: PubChem BioAssay
SARS PLP yeast: qHTS of Yeast-based Assay for SARS-CoV PLP; 0.19% of 330,000 active; AID 485353, 2010; Potency, µM (doses to about 32.9 µM), for the others: top-dose activity, positive = growth rescue; S. cerevisiae expressing SARS-CoV PLpro, growth rescue; control for the full effect not named in the record; active means well fitted rising curve with a large enough effect; inconclusive means small, poorly fitted or top-dose-only effect; inactive means no such curve, though single readings can be large or run the other way; note: 0% is about no effect; nearly all actives have a fitted effect of over 55% in size; growth read by luminescence after 48 h
Marburg entry inh: qHTS for inhibitors of binding or entry into cells for Marburg Virus. Potency, µM (highest dose often 37.8 µM), for inactives: top-dose activity change, negative = inhibition, usual class: inhibitors. AID 540276, 2011. 1.8% of 300,000 active. Marburg virus pseudotyped entry inhibition, cell reporter; control for the full effect not named in the record; about a third of the inactives were read at about 46 µM; active = well fitted inhibition curve with a large enough effect; inconclusive = small, poorly fitted or top-dose-only effect, or effect the other way; inactive = flat fitted curve, though single readings scatter; tested in HEK293 cells; about a fifth of its hits are not listed in these tables; note: % is set by controls: 0 for no effect and ±100 for the full control effect; luciferase read-out
NS1 function inh: qHTS Assay for Inhibitors of Influenza NS1 Protein Function; S. cerevisiae slowed by influenza A NS1, growth recovery by OD600; Potency, µM (top dose mostly 46.1 µM), for the others: at the highest dose activity, positive = more growth; 0.4% of 270,000 active; AID 2326, 2010; active means well fitted rising curve with a large enough effect; inconclusive means small, poorly fitted or top-dose-only effect; inactive means no such curve, though single readings can be large or run the other way; note: nearly all actives have a fitted effect of over 50% in size
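Read-out: OD600 growth recovery of NS1-expressing budding yeast. Cells grown overnight at 30C in -URA glucose medium, washed, resuspended and diluted 1:100 in 2% galactose assay medium, pH 6.0. Same strain lacking NS1 served as positive control.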
RE007 growth inh: qHTS Assay for Inhibitors of the HIV-1 protein Vpr; S. pombe RE007 Vpr strain, BacTiter-Glo ATP luminescence, 24 h; control for the full effect not named in the record; 0.21% of 360,000 active; AID 651644, 2012; Potency, µM (series often up to 92.2 µM), for the others: at the highest dose activity change, negative = less growth; active = well fitted falling curve with a large enough effect; inconclusive = small, poorly fitted or top-dose-only effect; inactive = no such curve, though single readings can be large or run the other way;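 note: % is set by controls: 0 for no effect and ±100 for the full control effect; nearly all actives have a fitted effect of over 50% in size; the assay follows cell death caused by Vpr and the record does not say whether a fall means rescue or toxicity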
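Fission yeast RE007 carrying one integrated HIV-1 vpr copy, seeded at OD 0.01 in PMG+AL medium with 23 nL pinned compound. Grown 24 h at 30 degrees; viability read by BacTiter-Glo luminescence after 5 min.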
2A StopGo: High Throughput Screening for Foot and Mouth Disease Virus Antivirals | human cells with a luciferase reporter of 2A StopGo recoding; control for the full effect not named in the record | 1.2% of 410,000 active | Potency, µM (titrated, usually from 57.9 µM), for the others: top-dose signal change, negative = less light | AID 1159524, 2015; active = well fitted falling curve with a large enough effect; inconclusive = small, poorly fitted or top-dose-only effect; inactive = no such curve, though single readings can be large or run the other way; tested in HEK293T cells; note: % is set by controls: 0 for no effect and ±100 for the full control effect; nearly all actives have a fitted effect of over 45% in size; luciferase light after 4 h
Lassa entry inh: qHTS for Inhibitors of binding or entry into cells for Lassa Virus; Lassa virus pseudotype entry inhibition, cell reporter; control for the full effect not named in the record; Potency, µM (top dose mostly 37.9 µM), for inactives: top-dose activity change, negative = inhibition, actives largely listed as inhibitors; 1.2% of 300,000 active; active means well fitted inhibition curve with a large enough effect; inconclusive means small, poorly fitted or top-dose-only effect, or effect the other way; inactive means flat fitted curve, though single readings scatter; tested in HEK293 cells; note: % is set by controls: 0 for no effect and ±100 for the full control effect; nearly all actives have a fitted effect of over 50% in size; luciferase read-out
Cruzain inh Det: qHTS Assay for Promiscuous and Specific Inhibitors of Cruzain (with detergent); Potency, µM, inactives show max response, negative = inhibition, actives largely listed as inhibitors; 0.43% of 200,000 active; Cruzipain (Trypanosoma cruzi), P25779; purified cruzain, Z-FR-AMC fluorescence, 0.01% Triton; AID 1478, 2009;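 note: plate controls were neutral wells for no effect and buffer without enzyme for full effect; nearly all actives have a fitted effect of over 40% in size; top concentration of the series not given in the record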
Target sequence (P25779 123-467 limits assumed): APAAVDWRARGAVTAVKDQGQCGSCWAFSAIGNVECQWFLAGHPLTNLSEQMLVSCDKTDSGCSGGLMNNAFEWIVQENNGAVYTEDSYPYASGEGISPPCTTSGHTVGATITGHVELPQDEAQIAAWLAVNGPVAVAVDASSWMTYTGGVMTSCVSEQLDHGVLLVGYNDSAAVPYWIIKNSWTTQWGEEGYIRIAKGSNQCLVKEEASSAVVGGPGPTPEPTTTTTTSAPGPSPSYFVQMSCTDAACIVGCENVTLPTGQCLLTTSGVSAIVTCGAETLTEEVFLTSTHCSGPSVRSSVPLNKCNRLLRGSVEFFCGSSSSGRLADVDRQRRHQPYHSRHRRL
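Steps: dispense cruzain (1.5 nM final) in acetate buffer pH 5.5 with DTT and 0.01% Triton X-100; pin-transfer compounds; incubate 15 min RT; add Z-FR-AMC (2 uM final); read fluorescence every 30 s, using the 60 s intensity change.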
Cruzain noTriton: qHTS Assay for Promiscuous and Specific Inhibitors of Cruzain (without detergent); Cruzipain (Trypanosoma cruzi), P25779; 2.3% of 200,000 active; Potency, µM, without a hit: max response, negative = inhibition, actives largely listed as inhibitors; AID 1476, 2009; purified cruzain, Z-FR-AMC fluorescence, no detergent;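 note: plate controls were enzyme without inhibitor for no effect and buffer without enzyme for full effect; nearly all actives have a fitted effect of over 40% in size; top concentration of the series not given in the record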
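Purified cruzain at 1.5 nM, pre-incubated 15 min with compound at room temperature in 100 mM sodium acetate pH 5.5, 5 mM DTT, 0.00005% Triton X-100. Reaction started with 2 uM Z-FR-AMC; AMC fluorescence increase over 60 s gives rate.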
* hit, by the source's call; ? = inconclusive; . = no result given; & = joins results of further samples; [ ] = remark or other dose. Unless noted, calls come from the whole dose curve; as a rule, active = well fitted curve in the direction sought with a large enough effect; inconclusive = small, poorly fitted or top-dose-only effect, or another doubt; inactive = no such curve, though single readings can be large; an effect the other way counts as inactive or inconclusive. Potency is the fitted concentration of half-maximal effect.

SMILES	SARS PLP yeast	Marburg entry inh	NS1 function inh	RE007 growth inh	2A StopGo	Lassa entry inh	Cruzain inh Det	Cruzain noTriton
O=C(c1n[nH]c2ccccc12)N1CCN(S(=O)(=O)c2ccc3ccccc3c2)CC1	-16%	3%	-26%	-11%[3.69 µM]	-27%	-8%	-4.0%	?
COc1ccc(CN2CC(C(=O)NCC3CCCO3)CC2=O)cc1 (stereo unspecified)	2%	-1%	5%	-4%	8%	3%	4.7%	-8%
CC(=O)Nc1c([N+](=O)[O-])cc(C)c(Cl)c1[N+](=O)[O-]	-3%	?	.	-15%	-13%	-17%[46.1 µM]	.	.
COCCCn1c(C(C)C)nc2oc3cc(OC)ccc3c(=O)c2c1=O	1%	-9%	-1%	1%	-2%	?	-4.6%	2%
CCOc1cc(-c2ccc(OC(=O)c3ccc(Cl)cc3)c(OC)c2)cc(=O)c2c(C)oc(C)c12	.	25%[46.1 µM]	.	.	?	-5%[46.1 µM]	-10%	?
CC(C)Oc1ccc(N2CC(C(=O)Nc3ccc(N4CCOCC4)cc3)CC2=O)cc1 (stereo unspecified)	-1%	-8%	9%	-12%	18%	-1%	2.3%	2%
CCCc1cc(=O)oc2cc(C)cc(OCC(=O)N[C@@H](CSCc3ccccc3)C(=O)O)c12	1%	.	?	-9%	-17%	.	.	.
Cc1ccccc1CSCCNC(=O)CCSc1ccccc1	-14%	-5%	-73%	-5%	13%	?	-3.2%	1%
CN1C(=O)CC(NNC(=O)c2ccccc2)C1=O (stereo unspecified)	0%	8%	?	10%	9%	25%	6.5%	12%
CN1C(=O)N(C)C(=O)C(CCc2ccccn2)(CCc2ccccn2)C1=O	12%	4%	-5%	0%	6%	0%	2.0%	5%
COCCCn1c(=O)c2sccc2n2c(CCCC(=O)NCc3ccccc3)nnc12	1%	-9%[46.1 µM]	-6%	3%	-6%	?	.	.
N#C/C(=C\c1ccc(N2CCCCC2)o1)C(N)=O	0%	4%[46.1 µM]	-1%	-10%	23%	15%[46.1 µM]	.	.
CCN(CC)Cc1c(O)ccc2occ(C(=O)c3ccc(OC)cc3)c12	-14%	?	-9%	-3%	-16%	?	-8.5%	-21%
CC(C)c1ccc(NC(=O)CSC2=Nc3ccccc3C3=NC(CC(=O)NC4CCCCC4)C(=O)N23)cc1 (stereo unspecified)	.	.	.	.	?	18%[46.1 µM]	-1.1%	-15%
COc1ccccc1C(=O)NC(CCSC)C(=O)NNC(=O)c1ccc(F)cc1 (stereo unspecified)	6%	2%	-5%	-3%	-20%	-14%	.	.
CCn1cc(CN2CCC(C(=O)Nc3cccc(-c4cccc(OC)c4)c3)CC2)c(C)n1	?	-21%	8%	-14%	-16%	7%	.	.
CCSc1nc2ccc(N3C(=O)C4C5C=CC(C5)C4C3=O)cc2s1 (stereo unspecified)	-8%	?	-13%	-15%	5%	17%	-3.2%	-5%
O=c1[nH]c2cc3c(cc2cc1C(c1nnnn1CC1CCCO1)N1CCCC1)OCO3 (stereo unspecified)	5%	8%	-3%	6%	8%	5%	?	?
NC(=O)Nc1ccc(Oc2c(F)c(F)c(F)c(F)c2F)cc1	-2%	1%	-56%	16%	2%	-15%	-7.3%	3%
CCOC(=O)Cc1csc(NC(=O)Nc2cccc(OC)c2)n1	0%	1%	5%	5%	-12%	-25%	.	.
O=C(CCNC(=O)c1ccc([N+](=O)[O-])cc1)NCc1cccs1	4%	0%	.	3%	-11%	-27%	.	.
CCOC(=O)c1cc(CC)sc1/N=C/C1=C(O)CC(C)(C)CC1=O	6%	-2%	14%	5%	13%	-14%	-4.0%	0%
O=S(=O)(NC1CCCCC1N1CCN(c2ccc(F)cc2)CC1)c1ccccc1 (stereo unspecified)	2%	.	-9%	19%	?	.	.	.
CCCc1cc(=O)[nH]c(SCC(=O)Nc2sc3c(c2C#N)CCC(C)C3)n1 (stereo unspecified)	-6%	33%[46.1 µM]	15%	-3%	7%	-10%[46.1 µM]	.	.
CCNC(=S)N/N=C1\CCCCc2ccccc21	-30%	1%	-43%	-20%	-23%	-23%	-1.4%	2%
Cc1ccccc1CSc1nnc(-c2ccncc2)o1	-1%	.	-32%	3%	15%	.	.	.
N#Cc1c(C(F)(F)F)cc(C2CC2)nc1N1CCCC1	7%	11%	7%	12%	-20%	2%	-2.6%	-5%
Cc1cccc(NC(=O)c2ccc(OCc3c(C)noc3C)cc2)c1	2%	-23%	.	-26%	-9%	-23%	.	.
COc1ccccc1OCc1csc(N)n1	2%	19%[46.1 µM]	.	5%	10%	1%[46.1 µM]	.	.
CCC(=O)N1CCN(c2ccc(NC(=S)NC(=O)c3ccc(OC)c([N+](=O)[O-])c3)cc2)CC1	0%	?	10%	-14%	?	?	.	.
Cc1ccc(S(=O)(=O)NC(=O)c2ccc(Br)o2)c(C)c1	-18%	3%	-10%	1%	13%	-14%	0.0%&-1.0%	-3%&0%
Cc1ccc(NC(=O)c2sc3nc(C)cc(C)c3c2N)cc1	-2%	?	-6%	-11%	29%	?	.	.
Cn1nc(-c2ccc(Cl)cc2)c2cc(C(=O)NCC3CCCO3)sc21 (stereo unspecified)	-29%	.	-80%	2%	?	.	-3.0%	?
COC(=O)Cc1[nH]nc2c1C(c1ccc(O)c(OC)c1)C(C#N)=C(N)O2 (stereo unspecified)	2%	.	10µM*	5%	-11%	.	.	.
COc1ccc(O)c(/C=N/NC(=O)c2cccc(N3CCCC3=O)c2)c1	15%	?	-1%	10%	23%	?	.	.
COC(=O)c1ccc(Oc2nc(NC(C)C)nc(NC(C)C)n2)cc1	0%	0%[46.1 µM]	-8%	6%	-10%	15%[46.1 µM]	.	.
CCCCNC(=O)c1onc(CSc2cc(C)cc(C)c2)c1C(=O)O	-8%	.	21%	15%	-8%	.	4.4%	-5%
Cc1sc(-n2c(C)cc(/C=N/n3cnnc3)c2C)c(C#N)c1C	5%	-26%	-2%	12%	-7%	-32%[14.3 µM]	-0.5%	-10%
COc1ccc(S(=O)(=O)N2CCc3cc(OC)c(OC)cc3C2)cc1	-1%	.	-8%	15%	-22%	.	.	.
COc1cc(C(=O)C(=O)c2ccc(O)c(OC)c2)ccc1O	-1%	.	-5%	0%	48%[activator]	.	.	.
Cc1cc(C)c(C(=O)OCc2csc(CC(=O)Nc3ccccc3C)n2)c(C)c1	-5%	.	-35%	-10%	?	.	.	.
Cc1ccc(C)c(Cn2c3ccccc3c3cnn(CC(=O)NCc4ccccn4)c(=O)c32)c1	1%	.	3%	0%	-20%	.	.	.
Cc1cccc(C)c1NC(=O)CNC(=O)c1ccncc1	1%	0%[46.1 µM]	3%	3%	-10%	?	.	.
Nc1ccc(-c2nc3ccccc3o2)cc1	12%	.	8%	-21%	38%[activator]	.	.	.
Cc1ccc(NC(=O)C2(C)Cc3ccccc3C(=O)O2)cc1 (stereo unspecified)	0%	.	-4%	-5%	19%	.	.	.
CCCN1CCC(NC(=O)Nc2ccccc2C(=O)OC)CC1	-1%	-5%	-1%	-3%	-8%	1%	3.4%	0%
CCc1cc(=O)oc2cc(C)cc(OC(C)C(=O)NCc3ccncc3)c12 (stereo unspecified)	-3%	-14%[46.1 µM]	-4%	-24%	8%	2%[46.1 µM]	.	.
O=C(NC(=S)NNC(=O)[C@H]1C[C@@H]1c1ccccc1)c1ccc(F)cc1	1%	.	-42%	25%	-19%	.	.	.
Cc1ccc(/C=N/NC(=O)c2cccc(NC(=O)c3ccccc3Cl)c2)o1	7%	14%[46.1 µM]	4%	-5%	-3%	-2%[46.1 µM]	.	.
O=C(NNC(=O)c1ccncc1)NC1CCCCC1	-1%	.	4%	?	9%	.	.	.

Next section.
SMILES	SARS PLP yeast	Marburg entry inh	NS1 function inh	RE007 growth inh	2A StopGo	Lassa entry inh	Cruzain inh Det	Cruzain noTriton
CCOC(=O)C(NC(C)=O)(NC(C)C)C(F)(F)F (stereo unspecified)	0%	.	1%	-2%	-9%	.	.	.
COC(CN1C(=O)C(O)=C(C(C)=O)C1c1ccccn1)OC (stereo unspecified)	2%	-3%	13%	32%	19%	0%	-2.9%	-2%
O=C(NCCNc1nccc(C(F)(F)F)n1)c1cccs1	1%	.	-4%	0%	-31%	.	.	.
CCOC(=O)COc1ccc(C(=O)c2ccccc2)c(O)c1	-5%	9%	5%	2%	-11%	5%	-2.7%	-4%
Cc1ccc(CN2CCNC(=O)C2CC(=O)N(C)CCc2ccccc2)cc1 (stereo unspecified)	0%	-8%[46.1 µM]	-2%	-7%	-24%	?	.	.
Cc1ccc(C(C)C)c(OCCSc2nc3ccccc3n2CC(O)CO)c1 (stereo unspecified)	.	-22%[46.1 µM]	.	.	-18%	3%[46.1 µM]	-13%	?
O=S(=O)(NCc1ccc(F)cc1)c1ccc(-n2cccn2)cc1	-1%	.	8%	3%	3%	.	.	.
O=C(CSc1nc2sc3c(c2c(=O)[nH]1)CCCC3)NCCO	13%	.	?	3%	-20%	.	-12%	3%
COc1ccc(OCC(=O)N/N=C(\C)c2cc3ccccc3o2)cc1	-5%	-40%	3%	-2%	0%	?	-8.6%	-10%
Cc1nsc(N)c1C(=O)O	-1%	.	4%	0%	-13%	.	.	.
Cc1ccc(NC(=O)N2CCN(C/C=C/c3ccccc3)CC2)cc1	1%	.	4%	11%	-19%	.	.	.
CCCC(=O)Nc1ccc(C(=O)Nc2cccc(OC)c2)cc1	-16%	13%	28%	2%	46%[activator]	0%	-1.3%	-1%
O=C(CSc1ccc(F)cc1)Nc1cccc(S(=O)(=O)N2CCOCC2)c1	-7%	-28%[46.1 µM]	.	-2%	36%[activator]	-6%[46.1 µM]	.	.
